Screens from PubChem.
Sfp inh: inhibitors of Bacillus subtilis Sfp phosphopantetheinyl transferase. Q9F4F7. Biochemical Sfp PPTase activity, qHTS. Potency, µM, for inactives: max response, negative = inhibition, usual class: inhibitors. hit rate 3.5% among 310,000; active means well fitted inhibition curve with a large enough effect; inconclusive means small, poorly fitted or top-dose-only effect, or another doubt; inactive means no such curve, though single readings can be large or run the other way;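 further: the enzyme is Sfp with the accession as filed and its product quenches rhodamine fluorescence; potency means the concentration at half of the fitted maximal effect; 0% = enzyme reaction without inhibitor and -100% = no enzyme wells; top concentration of the series not given in the record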
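Buffer: 50 mM Hepes-Na pH 7.6, 10 mM MgCl2, 0.01% Nonidet P-40, 0.01% BSA. Enzyme 15 nM, pre-exposed to compound 15 min; substrates then added and fluorescence change tracked over 30 min.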
TRPV1 PAM: human TRPV1 potentiation | potentiation, % at 8.33 µM | Q8NER1 | TRPV1-expressing cells, Fluo-8 calcium influx, capsaicin EC20 potentiation; host cell line not named in the record; control for the full effect not named in the record | hit rate 0.02% among 320,000; active means potentiation above 80%; inconclusive means 30% to 80%; inactive means below 30%; further: 0% is about no effect
Target sequence (Q8NER1 whole entry, looked up): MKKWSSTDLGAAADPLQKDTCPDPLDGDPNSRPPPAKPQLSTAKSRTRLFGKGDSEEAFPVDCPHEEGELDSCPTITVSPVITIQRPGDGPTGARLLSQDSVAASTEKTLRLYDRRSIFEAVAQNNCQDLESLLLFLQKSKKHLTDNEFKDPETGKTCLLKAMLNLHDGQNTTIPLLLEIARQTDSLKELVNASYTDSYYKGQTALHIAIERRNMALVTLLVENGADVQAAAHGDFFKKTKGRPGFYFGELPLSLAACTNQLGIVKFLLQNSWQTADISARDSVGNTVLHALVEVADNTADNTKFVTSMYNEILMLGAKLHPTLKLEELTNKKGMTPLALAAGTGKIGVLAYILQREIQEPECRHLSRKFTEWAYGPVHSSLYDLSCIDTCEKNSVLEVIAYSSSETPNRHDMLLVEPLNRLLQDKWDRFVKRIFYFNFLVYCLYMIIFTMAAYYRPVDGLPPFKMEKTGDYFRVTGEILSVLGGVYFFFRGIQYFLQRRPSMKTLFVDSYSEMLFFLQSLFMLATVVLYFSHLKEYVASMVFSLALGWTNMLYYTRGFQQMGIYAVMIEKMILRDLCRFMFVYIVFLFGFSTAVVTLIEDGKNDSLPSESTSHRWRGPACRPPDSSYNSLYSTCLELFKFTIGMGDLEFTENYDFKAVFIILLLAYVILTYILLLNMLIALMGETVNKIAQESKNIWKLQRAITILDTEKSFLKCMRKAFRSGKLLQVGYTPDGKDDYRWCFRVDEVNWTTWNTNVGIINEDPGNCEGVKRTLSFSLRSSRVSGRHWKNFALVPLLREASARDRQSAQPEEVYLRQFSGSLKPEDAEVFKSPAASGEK
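Cells expressing TRPV1 were dye-loaded with Fluo-8 and read kinetically: 10 s baseline, 3 min after compound (agonist portion), then 2 min after EC20 capsaicin (allosteric enhancer portion). Calcium-bound dye fluorescence at 480/520 nm.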
gsp antag: antagonizes gsp, the McCune-Albright syndrome mutation; hit rate 0.4% among 340,000; Potency, µM (titrated, usually from 76.9 µM), without a hit: at the top dose activity change, negative = inhibition, hits mostly inhibitors; gsp-mutant cells, cAMP HTRF, 30 min; control for the full effect not named in the record; AID 624288; active = falling curve of any shape with a large fitted effect; inconclusive = falling curve, mostly with a smaller effect; inactive = flat or rising curve; cell line not stated here;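 further: intracellular cAMP measured with PDE inhibitor Ro 20-1724 present during compound exposure; potency means the concentration at half of the fitted maximal effect; on the % scale 0 is the no-effect control and ±100 the full control effect; nearly all actives have a fitted effect of over 65% in size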
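Cells in G418 medium, seeded 16-24 h, 37C; buffer exchange to DPBS + 1 mM CaCl2, 0.5 mM MgCl2, 0.05% BSA; cpds in DMSO + […] (300 uM stock), 30 min 37C; HTRF cAMP detection.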
ClpP mod: qHTS Assay for Activators of ClpP; ATP-dependent Clp protease proteolytic subunit (Bacillus subtilis (strain 168)), P80244; purified B. subtilis ClpP, FRET peptide cleavage, 20 min; Potency, µM (top dose mostly 57.5 µM), for inactives: at the top dose activity change, negative = active; hit rate 1.9% among 340,000; active = well fitted falling curve with a large enough effect; inconclusive = small, poorly fitted or top-dose-only effect; inactive = no such curve, though single readings can be large or run the other way; further: potency means the concentration at half of the fitted maximal effect; the source files actives as falling curves though it sought activators and does not explain the sign; nearly all actives have a fitted effect of over 65% in size; many hits overshoot -100%
Target sequence (P80244 whole entry, looked up): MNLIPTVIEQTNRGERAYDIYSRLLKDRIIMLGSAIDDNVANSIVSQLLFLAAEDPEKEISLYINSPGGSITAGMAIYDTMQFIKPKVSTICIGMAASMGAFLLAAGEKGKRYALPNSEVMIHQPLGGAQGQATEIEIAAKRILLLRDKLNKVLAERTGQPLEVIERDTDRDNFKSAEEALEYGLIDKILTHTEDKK
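FRET quenching reversal measured ClpP activation: 10 microg/mL B. subtilis ClpP at pH 8 with the FRET-FV decapeptide, read at 430 nm after 320 nm excitation. The 20-min minus 0-min signal was scaled between DMSO/no-enzyme wells and ADEP (5.8 microM final).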
D2 PAM: positive allosteric modulators of human D2 dopamine receptor | P14416 | DiscoveRx D2 beta-arrestin cells, luminescence, 90 min; 100% = 57 uM dopamine signal | AID 624464 | potentiation, % (no concentration beside the values) | hit rate 0.23% among 360,000; active = potentiation of 50% or more; inconclusive = 30% to 50%; inactive = 30% or less;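 further: compound concentration not given in the record; tested on top of an EC20 dose of dopamine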
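PathHunter D2 cells, attached overnight at 37 deg C, received compound in DMSO plus dopamine at EC20 (50 nM final) for 90 min at 37 deg C. Beta-arrestin recruitment was read as luminescence after 1 h with detection reagent at ambient temperature.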
gsp ag: agonists of gsp mutant (McCune-Albright syndrome); gsp mutant cells, cAMP HTRF, 30 min; control for the full effect not named in the record; Potency, µM (doses to about 76.9 µM), for inactives: top-dose activation (cAMP increase), hits mostly activators; hit rate 0.13% among 340,000; active = well fitted activation curve with a large enough effect; inconclusive = small, poorly fitted or top-dose-only effect, or another doubt; inactive = no such curve, though single readings can be large or run the other way; cell line not stated here;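 further: phosphodiesterase inhibitor Ro 20-1724 added with compounds to block cAMP breakdown; potency means the concentration at half of the fitted maximal effect; nearly all actives have a fitted effect of over 60% in size; about a fifth of the inactives were tested at one dose only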
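Cells stably selected in G418 were plated at 2000/well, grown 16-24 hr, then given compounds in DMSO with the PDE inhibitor […] (300 uM solution added) for 30 min at 37C; cAMP was read by HTRF.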
Menin MLL FP FL: menin-MLL binding inhibition, fluorescein peptide | Fluorescence polarization, fluorescein-MLL peptide displacement from menin | 290,000 tested, under 10 active | AID 1766 | FP activity change, % at 61.4 µM; inconclusive = falling polarisation curve, or a change in total fluorescence; inactive = total fluorescence flat and polarisation flat or rising; no compound was filed as active; the % refers to the polarisation; negative = inhibition;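 further: % of control where 0% means no effect; inhibitors lower the polarisation; unlabelled MLL peptide was the positive control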
Numbers without * were called inactive; ? = inconclusive; · = not tested or not shown; & = joins results of further samples; [ ] = another dose, or the depositor's remark.

Structure	Sfp inh	TRPV1 PAM	gsp antag	ClpP mod	D2 PAM	gsp ag	Menin MLL FP FL
CCc1c(C)nc2ncnn2c1N1CCC(C(=O)N2CCN(c3ccc(F)cc3)CC2)CC1	9%	-18	-4%	-2.6%	3	-41%	3.3
COc1ccc2cc(C(C)c3nc4ccccc4c(=O)n3N)ccc2c1 (stereo unspecified)	-3%	19	-12%	-14%	18	-30%[15.4 µM]	9.5
Cc1cc2oc(C(=O)N(Cc3ccccc3)c3ccccn3)cc(=O)c2cc1Cl	22%	-4	-11%	-0.9%	0	-7%	1.0
CC1CCCCN1CCn1c(=S)[nH]c2cc3c(cc2c1=O)OCO3 (stereo unspecified)	-7%	18	5%	-0.1%	-22	?	-1.4
NS(=O)(=O)c1ccc(O)c(N2C(=O)c3cccc4c(C(=O)O)ccc(c34)C2=O)c1	11%	7	-10%	·	-7	-6%[15.4 µM]	-19
CCCCC1CC(CSc2ncn[nH]2)OC1=O (stereo unspecified)	12%	-2	-2%	0.6%	5	-3%	-1.5
CC(C)C[C@H]1COCCS(=O)(=O)N1Cc1cccc(Cl)c1	·	·	-26%	-0.7%	-7	-5%	·
CCc1nnc(NS(=O)(=O)c2ccc(NC(=O)c3cccc(Cl)c3)cc2)s1	13%	19	-2%	0.4%	-20	0%	-0.4
Cc1ccc(C2C3=C(CC(C)(C)CC3=O)N=C3c4ccccc4C(=O)C32)cc1 (stereo unspecified)	-17%	19	-14%	-8.1%	-34	0%	3.1
COC(=O)c1ccc(NC(=O)Nc2ccc(F)cc2)cc1	1%	-12	-11%	-2.7%	12	?	0.9
O=C(c1ccc(F)cc1F)N1CCCC(c2nc(-c3ccc(F)cc3)no2)C1 (stereo unspecified)	3%	-1	-13%	·	0	-25%	-2.8
O=C(c1ccccc1-n1cccc1)N1N=C(C(F)F)CC1(O)C(F)F (stereo unspecified)	9%	2	8%	-1.3%	-28	-15%	0.3
Cc1ccc2c(Cl)cc(Cl)c(OCC(=O)Nc3cccc(S(=O)(=O)N(C)C)c3)c2n1	3%	6	-3%	1.3%	1	-38%[inhibitor]	2.0
CC(=O)Nc1ccc(S(=O)(=O)N(C2=NCC(C)S2)c2ccccc2)cc1 (stereo unspecified)	18%	-3	-15%	0.9%	-43	-18%	3.4
Fc1cccc(Cl)c1CNc1ccc(N2CCCC2)cc1	?	6	0%	·	-5	10%[15.4 µM]	0.2
COC(=O)C/C=C/[C@@H](C)[C@@H](/C=N/OC[C@H]1O[C@H](c2ccccc2)C=C[C@@H]1Oc1ccc(OC)cc1)OC	-16%	14	·	·	·	·	-2.6
CCOc1ccc(NC(=O)CN2C(=O)C3CCCN3C2=O)cc1 (stereo unspecified)	24%	-18	2%	-3.7%	-6	-9%	4.5
COc1ccc(NC(=O)NNC(=O)c2ccc(Cl)cc2Cl)cc1OC	0%	13	-5%	·	-3	6%[15.4 µM]	-3.8
COc1ccc(NS(=O)(=O)c2cc(NC(=O)C3CC3)ccc2N2CCOCC2)cc1	17%	4	0%	-0.9%	-1	0%[15.4 µM]	4.6
Cc1cc(C(=O)N(C)C)sc1-c1ccccc1	11%	-5	-5%	0.8%	-20	-2%	1.9
Cc1nc2ccc(NC(=O)Cc3ccc(Br)cc3)cc2s1	19%	7	-9%	·	-2	-17%[15.4 µM]	1.4
O=C(NNS(=O)(=O)c1ccc(F)cc1)c1cccc(O)c1	0%	26	-2%	-1.4%	-2	5%[15.4 µM]	-0.5
OCC[C@H]1C[C@H](O)[C@@H](O)[C@@]2(Cc3ccccc3CCO2)O1	·	-22	10%	-0.4%	-12	·	·
CCCCCn1c(=O)c(F)cn(Cc2ccc(OC)c([N+](=O)[O-])c2)c1=O	0%	2	3%	1.6%	-1	-33%[inhibitor]	-2.2
CN(CC1CCN(CCc2cccc(C(F)(F)F)c2)CC1)C(=O)c1ccc(F)cc1F	21%	28	4%	1.7%	-3	-5%	1.0
CC(=O)Oc1ccc(C(=O)[C@H]2[C@H]3C(=O)N(c4ccc(C)cc4)C(=O)[C@H]3[C@@H]3C=CC=NN32)cc1	-22%	-2	1%	-1.4%	-5	7%	·
c1ccc(CSCCc2ccncc2)cc1	8%	5	8%	-3.0%	-13	0%	-1.4
CC1CCN(C(=O)c2nc[nH]c2C(=O)O[C@H](C)c2ccccc2)CC1	·	-2	3%	0.3%	-3	-4%	·
COc1ccc2[nH]c(C(=O)N3CCNCC3)cc2c1OC	-6%	-16	-3%	·	0	11%	-8.2
C[C@@H]1CCCCO[C@@H](CN(C)C(=O)C2CCCCC2)[C@@H](C)CN([C@H](C)CO)C(=O)c2cc(NC(=O)NC3CCCCC3)ccc2O1	·	·	·	-10%	-7	-80%[inhibitor]	·
CC1(c2ccc(OC(F)F)cc2)NC(=O)N(CC(=O)Nc2ccc(OC(F)F)cc2)C1=O (stereo unspecified)	21%	-1	6%	·	-5	-15%[15.4 µM]	-0.2
COC(=O)[C@@H](Cc1ccccc1)NC(=O)CC[C@H]1O[C@@H](n2cc(C)c(=O)[nH]c2=O)C[C@@H]1O	·	·	5%	-1.4%	-2	·	·
CN(C)S(=O)(=O)c1ccc(C(=O)NCc2ccco2)cc1	-9%	-25	4%	·	-4	-28%	4.5
CN(C)S(=O)(=O)c1cccc(C(=O)NCC2CCCCC2)c1	-9%	-5	-6%	·	-10	-1%[15.4 µM]	0.5
CC1(C)NC(=O)N(CC(=O)N2CCN(S(=O)(=O)c3ccccc3C(F)(F)F)CC2)C1=O	·	0	8%	-3.1%	-12	9%	·
O=[N+]([O-])c1cccc(CSC2=NCCN2S(=O)(=O)c2ccccc2)c1	4%	9	-23%	-0.5%	-2	?	-7.6
O=C(CCC(=O)Nc1ccccc1Cl)NNC(=O)COc1ccc([N+](=O)[O-])cc1	·	-9	13%	-1.3%	3	10%	·
O=C(CSc1ccc(-c2ccc(Br)cc2)nn1)N1CCOCC1	17%	-8	5%	·	3	13%	-1.1
COc1cc2c(cc1O)C(SC)=NC(C)(C)C2	4%	8	-3%	-1.2%	10	-39%[inhibitor]	-2.4
CSc1ncccc1C(=O)NC1CCN(Cc2ccccc2)CC1	19%	10	13%	-1.1%	-21	?	·
Cc1cccc(N2CCN(C(=O)c3ccc(NC(=O)CC4SC(N5CCCC5)=NC4=O)cc3)CC2)c1C (stereo unspecified)	·	·	-16%	0.0%	-1	-34%[inhibitor]	·
CN(C)c1ccc(N=Nc2ccccc2C(=O)OCC(=O)N(C)C2CCCCC2)cc1	-5%	-11	6%	-9.9%	-17	-10%	3.6
Cc1nc(SCC(=O)CC(=O)OC(C)C)c(C#N)c(C)c1C	-1%	10	-32%	151%	-17	21%	0.3
CCOc1c(C(=O)CC)cc2c(C)cc(=O)oc2c1C	0%	?	8%	-15%	-5	0%	-1.1
O=C(OCC(=O)N1CCc2ccccc2C1)c1c(F)cccc1Cl	·	·	-1%	1.5%	1	2%	·
S=C(NCCc1ccccn1)Nc1ccc(Cl)cc1	-8%	3	3%	-1.8%	-3	-15%	3.5
CCN(CC)CCN(C(=O)c1ccc([N+](=O)[O-])cc1)c1nc2c(OC)cccc2s1	-8%	3	3%	1.7%	-21	13µM*	2.6
O=C(CNC(=O)c1ccc(Cl)cc1)c1ccccc1	·	·	8%	·	-8	12%[15.4 µM]	·
Cc1ccc2[nH]c3c(=O)n(CCCN4CCN(C)CC4)cnc3c2c1	-2%&26%	10&6	-5%	?	-7	19%	1.3&-0.6
Cc1nc(NC(=O)c2ccco2)sc1-c1csc(Nc2ccc(Cl)cc2)n1	2%	-4	-16%	-12%	-9	?	1.5
COc1ccccc1/C=C/C(=O)NCC(=O)N/N=C/c1ccc(C)o1	-30%	7	-9%	·	-14	10%	-1.0
CC1CCC(NCC(=O)Nc2cccc(S(N)(=O)=O)c2)CC1 (stereo unspecified)	-27%	-5	5%	-2.7%	-13	-12%	-0.9
CS(=O)(=O)NCCNC(=O)c1cc(OCC(F)(F)F)ccc1OCC(F)(F)F	7%	-7	5%	-10.0%	-1	-58%[inhibitor]	0.6
N#Cc1c(/N=C\c2ccc(O)c([N+](=O)[O-])c2)sc2c1CCCC2	?	-4	-21%	0.9%	20	-29%	0.5
CN(C)C=NC(=O)c1cc(C(=O)c2ccc(Cl)cc2)c[nH]1	18%	?	-8%	·	-2	-2%[15.4 µM]	4.5
COc1ccc(-c2nc(CCl)cs2)cc1	5%	-1	-6%	4.2%	-3	7%	-0.1
CCCCC(=O)Nc1ccc(NC(=O)c2cnccn2)cn1	10%	3	17%	-0.4%	-2	3%	-3.0
Cn1c(CN2CCN(C(=O)c3ccccc3)CC2)nc2cc([N+](=O)[O-])ccc21	-4%	12	-15%	-0.1%	-7	?	7.3
Cc1cccc(N2CC(C(=O)Nc3nnc(SCC(=O)Nc4nccs4)s3)CC2=O)c1 (stereo unspecified)	-7%	15	8%	4.6%	-1	12%[15.4 µM]	5.1
CCn1cc(/C=N/O)c(C)n1	17%	-1	16%	-1.7%	-6	-4%	2.4

(continued)
Structure	Sfp inh	TRPV1 PAM	gsp antag	ClpP mod	D2 PAM	gsp ag	Menin MLL FP FL
O=C(Nc1ccncc1)Nc1cccc(F)c1	23%	-18	9%	0.6%	-9	?	-2.3
CN(/N=C/c1ccc([N+](=O)[O-])o1)c1ccccc1	3%	5	-3%	·	-17	-7%[15.4 µM]	16
Cc1ccc(-n2nc3c(N4CCC(C(=O)NCCc5ccccc5C)CC4)nnc(C)c3c2C)cc1	4%	-11	-19%	4.2%&-28%	-29	20%	·
O=S(=O)(Nc1ccc(Cc2ccncc2)cc1)c1cccs1	8%	11	-12%	1.0%	5	-34%[inhibitor]	-0.3
CCOC(=O)c1sc2nc(CC(=O)OC)nc(NCc3ccc(F)cc3)c2c1C	15%	-3	-9%	3.5µM*	-12	-36%	0.7
CC(C)c1nnc(NC(=O)Cc2ccccc2[N+](=O)[O-])s1	19%	6	9%	-0.5%	-10	?	4.6
O=C(Cc1ccc(Br)cc1)Nc1ccc2[nH]ncc2c1	9%	-15	14%	?	-3	2%[15.4 µM]	3.1
